Six1-Eya2 inh: Six1/Eya2 interaction inhibition. Q15475+O00167. AlphaScreen GST-Six1/His-Eya2 binding, biochemical; stronger effect = lower value; control for the full effect not named in the record. activity change, % (no concentration beside the values). hit rate 0.56% among 360,000. AID 651725; in the data active = activity change below about -65%; inconclusive = about -30% to -65%; inactive = above about -30%; further: on the % scale 0 is the no-effect control and ±100 the full control effect; compound concentration not given in the record
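Homogeneous AlphaScreen proximity assay pairing GST-Six1 with His-tagged Eya2 (added as 5X mix: 250 nM and 500 nM) in 50 mM Tris pH 8.0, 300 mM NaCl, 1 mM TCEP. Glutathione donor and nickel acceptor beads; 1 h, 37 °C, dark.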
TRPML1 blocker: blocks the human TRPML1 channel; Q9GZU1; hit rate 0.02% among 390,000; AID 624415; TRPML1-inducible cells, Ca2+ dye fluorescence, FDSS; stronger effect = lower value; inhibition of EC80 agonist-evoked calcium signal; activity change, negative = inhibition, % (no concentration beside the values); in the data active means activity change below about -50%; inconclusive means about -30% to -50%; inactive means above about -30%;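 further: stimulus is agonist 54-4 at its EC80 concentration; on the % scale 0 is the no-effect control and ±100 the full control effect; compound concentration not given in the record; the text of the record puts the active cut at -80%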
Target sequence (Q9GZU1 whole entry, looked up): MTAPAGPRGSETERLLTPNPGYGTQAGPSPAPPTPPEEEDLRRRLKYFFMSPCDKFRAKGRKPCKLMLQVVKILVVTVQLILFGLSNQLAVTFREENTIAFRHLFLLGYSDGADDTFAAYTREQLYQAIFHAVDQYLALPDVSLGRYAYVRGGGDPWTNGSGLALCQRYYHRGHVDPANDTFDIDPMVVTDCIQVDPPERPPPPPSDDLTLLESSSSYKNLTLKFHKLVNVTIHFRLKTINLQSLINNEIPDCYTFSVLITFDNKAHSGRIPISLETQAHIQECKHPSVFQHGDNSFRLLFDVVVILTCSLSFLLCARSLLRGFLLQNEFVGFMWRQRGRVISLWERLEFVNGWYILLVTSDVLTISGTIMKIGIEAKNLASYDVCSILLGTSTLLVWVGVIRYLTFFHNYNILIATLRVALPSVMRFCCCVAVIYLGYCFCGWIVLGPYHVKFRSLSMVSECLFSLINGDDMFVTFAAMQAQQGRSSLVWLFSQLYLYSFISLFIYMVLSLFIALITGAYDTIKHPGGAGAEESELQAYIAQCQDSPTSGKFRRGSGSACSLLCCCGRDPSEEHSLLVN
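Calcium fluorescence in TRPML1-DL cells induced overnight with Tet: a 110 s read after compound pin addition, then a 110 s antagonist read after challenge with 54-4 at 4 uM final (EC80).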
CtBP-E1A inh: inhibitors of CtBP/E1A interaction; AlphaScreen GST-E1A/His-CtBP binding, 1536-well; stronger effect = lower value; control for the full effect not named in the record; activity change, % (no concentration beside the values); hit rate 0.49% among 340,000; AID 651724; in the data active means activity change below about -65%; inconclusive means about -30% to -65%; inactive means above about -30%; further: on the % scale 0 is the no-effect control and ±100 the full control effect; compound concentration not given in the record
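Protein mix (5X: 125 nM each GST-E1A, His-CtBP) was incubated with pinned compound 2 h at 37 deg C in dark, in 50 mM Tris pH 8.0 buffer with 300 mM NaCl. Glutathione donor and nickel acceptor beads followed; AlphaScreen signal read after 1 h.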
D2 agonist: activates the human D2 dopamine receptor | AID 624465 | hit rate 0.084% among 360,000 | DiscoveRx PathHunter D2 beta-arrestin, luminescence, 90 min; 100% = 57 uM dopamine signal | activation, % (test concentration not listed); in the data active = activation above about 40%; inconclusive = about 15% to 40%; inactive = below about 15%; further: compound concentration not given in the record; the text of the record calls up to 30% inactive
Target sequence (P14416 whole entry, looked up): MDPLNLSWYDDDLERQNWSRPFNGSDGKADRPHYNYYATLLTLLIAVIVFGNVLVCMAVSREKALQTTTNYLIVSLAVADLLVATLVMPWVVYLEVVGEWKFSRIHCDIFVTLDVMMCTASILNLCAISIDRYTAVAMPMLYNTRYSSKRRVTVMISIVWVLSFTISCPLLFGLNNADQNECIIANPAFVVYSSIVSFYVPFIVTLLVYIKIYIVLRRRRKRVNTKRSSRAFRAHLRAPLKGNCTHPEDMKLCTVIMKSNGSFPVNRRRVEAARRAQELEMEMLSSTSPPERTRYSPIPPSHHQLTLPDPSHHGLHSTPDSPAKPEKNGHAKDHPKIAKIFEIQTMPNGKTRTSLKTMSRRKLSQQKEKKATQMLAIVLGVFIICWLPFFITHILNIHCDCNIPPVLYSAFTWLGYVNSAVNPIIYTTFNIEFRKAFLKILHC
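Agonist mode: compounds alone added to overnight-plated D2 PathHunter cells for 90 min at 37 C, with 57 uM final dopamine (EC100) defining full response. Beta-arrestin recruitment detected by chemiluminescent reagent, read after 1 h at ambient temperature.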
TRPML1 ag: activates the human TRPML1 channel; Q9GZU1; TRPML1-expressing cells, Ca2+ dye fluorescence, FDSS; host cell line not named in the record; reference of the full effect not given here; activation, % (concentration not given with the values); hit rate 0.12% among 410,000; AID 624414; in the data active = activation above about 50%; inconclusive = about 30% to 50%; inactive = below about 30%; further: 0% is about no effect; the text of the record puts the active cut at 80%
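TRPML1-DL cells, Tet-induced overnight (~16 h, 37 degrees C), loaded 45-90 min at room temperature with Ca8 no-wash calcium dye plus quencher. FDSS fluorescence: 10 s baseline, compound pin-transfer, 110 s agonist read, then EC80 54-4 (4uM final) and 110 s antagonist read.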
PINK1 expr mod: changes PINK1 expression; PINK1 immunofluorescence, high-content cytometry, 24 h; Potency, µM (series often up to 76.6 µM), inactives show top-dose activation (PINK1 increase), usual class: activators; hit rate 0.2% among 410,000; active = well fitted activation curve with a large enough effect; inconclusive = small, poorly fitted or top-dose-only effect; inactive = flat fitted curve, though single readings scatter; cell line not stated here;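 further: potency means the concentration at half of the fitted maximal effect; % of control where 0% means no effect; nearly all actives have a fitted effect of over 65% in size; a mitochondrial uncoupler was the plate control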
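Measures PINK1 amount and localization on or inside mitochondria by immunofluorescence. Stable cells get compounds at 5 concentrations for 24 hours before fixation and staining; CCCP controls included.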
The depositor's hits bear a star; ? = inconclusive; / = not tested or not shown; [ ] = remark or other dose.

nr | structure | Six1-Eya2 inh | TRPML1 blocker | CtBP-E1A inh | D2 agonist | TRPML1 ag | PINK1 expr mod
1 | CC1CCN(CCNC(=O)c2ccc3c(=O)n(Cc4ccc(Cl)cc4)c(=S)[nH]c3c2)CC1 | -7.1 | 8.9 | / | -1.5 | 1.3 | -1.5%
2 | O=C(NCc1ccc2c(c1)OCO2)c1cc([N+](=O)[O-])ccc1N1CCCCC1 | -18.4 | -0.5 | -6.5 | -2.2 | 3.6 | 8.8%
3 | COc1ccc(CN2CCCC(C(=O)c3cccc(OC(C)C)c3)C2)cc1Cn1cccn1 (stereo not given) | -14.3 | 20.7 | -12.0 | -2.7 | 0.3 | 2.8%
4 | COc1ccc(S(=O)(=O)Nc2ccc(-c3cn4ccsc4n3)cc2)cc1C | / | ? | / | / | 0.8 | -4.4%
5 | COc1ccccc1NC(=O)c1ccc(C)c(S(=O)(=O)N2CCCCC2)c1 | 28.6 | 89.1 | 6.8 | -5.5 | 2.1 | 5.2%
6 | Cc1ccccc1NC(=O)COc1coc(CN2CCN(Cc3ccccc3)CC2)cc1=O | 5.9 | 24.2 | -6.0 | 0.8 | -0.1 | 1.8%
7 | CCNC(=O)COC(=O)c1csc2c1CCCC2 | 3.9 | -0.9 | 0.3 | 1.1 | 1.1 | 1.1%
8 | Cc1ccc2c(C)c(C(=O)Nc3c(C)n(C)n(-c4ccccc4)c3=O)oc2c1C | -1.3 | 4.3 | 8.2 | 44.9* | 1.5 | 2.1%
9 | CCOC(=O)N1CCN(S(=O)(=O)c2ccc(F)c(C(=O)Nc3cccc(C)c3C)c2)CC1 | 0.0 | -1.7 | 1.0 | 1.2 | 1.5 | 2.3%[38.3 µM]
10 | O=C(Nc1cc(N2CCOCC2)ncn1)c1ccc(F)cc1 | -3.5 | -9.4 | -2.3 | 1.5 | -0.4 | -0.4%
11 | CCCCNC(=O)C1(C)CCCCN1C(=O)c1ccc(OC)c(C(F)(F)F)c1 (stereo not given) | 9.0 | / | 6.1 | -0.9 | -1.2 | 0.5%
12 | COC(=O)c1cc(NC(=O)c2cc3c(-c4ccccc4F)nn(C)c3s2)cc(C(=O)OC)c1 | / | -10.9 | / | / | -0.8 | -0.2%

Shown as a hit in D2 agonist, of those listed so far:
entry	compound	Six1-Eya2 inh	TRPML1 blocker	CtBP-E1A inh	D2 agonist	PINK1 expr mod
8	Cc1ccc2c(C)c(C(=O)Nc3c(C)n(C)n(-c4ccccc4)c3=O)oc2c1C	-1.3	4.3	8.2	44.9*	2.1%

Later entries:
nr | structure | Six1-Eya2 inh | TRPML1 blocker | CtBP-E1A inh | D2 agonist | TRPML1 ag | PINK1 expr mod
13 | CC1(C)Cc2ccccc2-c2nnc(-c3ccc4ccccc4n3)n21 | 3.9 | 17.2 | 4.0 | 0.9 | -1.4 | -1.7%
14 | CSc1nc2c(c(=O)[nH]1)C(c1cccs1)C1=C(CCCC1=O)N2 (stereo not given) | -16.5 | 31.2 | -15.4 | -3.8 | -0.1 | 3.2%
15 | COc1ccc(-c2nc(CSc3nncn4c3cc3sccc34)c(C)o2)cc1OC | / | 1.6 | / | / | -0.8 | 0.8%
16 | COc1ccc(C(=O)NC(=O)Nc2ncccc2C)cc1 | 3.5 | -3.8 | -9.2 | -2.6 | 0.5 | -0.9%
17 | CC(=O)c1c(O)c(C)c(-c2ccccc2)n(-c2ccccc2)c1=O | -2.1 | 30.9 | -6.3 | -3.5 | 2.4 | 0.8%
18 | COc1ccc(NC(=S)c2ccncc2)cc1 | -6.3 | -5.6 | 5.8 | -3.2 | -0.1 | 2.5%
19 | Cc1c(NC(=O)c2cccs2)cccc1C(=O)O | 0.3 | 3.0 | 8.2 | 0.8 | -0.9 | 1.5%
20 | CCCCNc1ccc(-c2nc(-c3ccco3)no2)cc1[N+](=O)[O-] | / | 19.9 | / | / | -0.7 | -0.3%
21 | Cc1ccc(NC(=O)Cn2cc(S(=O)(=O)Cc3ccc(F)cc3)c3ccccc32)cc1Cl | / | 6.3 | / | / | 0.1 | ?
22 | Cc1cc(C)c(NC(=O)CSc2nc(=O)n(CCN3CCOCC3)c3c2CCCC3)c(C)c1 | 2.0 | 19.0 | -23.3 | -3.5 | -0.3 | -0.5%
23 | CCC1CCCCN1c1nc2c(C=O)c(C)nn2c2ccccc12 (stereo not given) | -2.2 | 15.4 | 0.8 | -3.6 | -0.1 | -1.4%
24 | COC1OC(O)C(NC(=O)C(F)(F)F)CC1O (stereo not given) | 10.5 | 27.8 | 15.0 | -3.2 | -0.4 | -2.7%
25 | CN1C(C(=O)Nc2ccc(C(=O)O)cc2)=C(O)c2ccccc2S1(=O)=O | -0.4 | -7.3 | -19.3 | -6.3 | 1.2 | -1.4%
26 | CC1CCCCC1NC(=O)/C(C#N)=C/c1ccc(F)c(F)c1 (stereo not given) | 22.1 | -4.2 | 0.0 | -2.9 | 0.1 | 1.7%
27 | N#Cc1ccc(-c2nc3ccc(Cl)cn3c2Cc2cccc(F)c2)cc1 | 7.5 | 60.3 | 7.9 | -4.1 | 1.4 | 3.7%
28 | CNC(=S)N1CCN(C(=O)c2ccco2)CC1 | ? | -0.4 | 5.8 | 0.9 | -0.5 | -0.8%
29 | COc1ccc2cc(C)c3nnc(SCC(=O)Nc4nc(-c5ccccc5)cs4)n3c2c1 | -2.6 | 8.4 | -6.4 | 1.1 | 0.6 | 2.5%
30 | COCCN(C(=O)COC(=O)c1cc2c(s1)CCC2)c1c(N)n(Cc2ccccc2)c(=O)[nH]c1=O | ? | 6.9 | -14.0 | -3.4 | -0.6 | -2.0%
31 | COCCCNc1nc2c(c(=O)[nH]c(=O)n2C)n1CC(O)COc1cccc(C)c1 (stereo not given) | 8.8 | -1.9 | -5.3 | -1.7 | 1.6 | -1.3%
32 | Cc1onc(-c2ccccc2Cl)c1C(=O)NCCn1ccc2ccccc21 | -8.4 | 8.7 | 2.8 | -3.5 | -0.7 | 1.9%
33 | CCOC(=O)c1nn(-c2ccccc2)c(=O)cc1OCC(=O)Nc1cccc(OC)c1 | -9.7 | -6.2 | -3.3 | -3.5 | 0.9 | -0.5%
34 | CN(C)Cc1c(C(=O)N/N=C/c2cccs2)nnn1-c1nonc1N | -1.5 | -5.5 | -1.3 | -0.2 | -0.3 | 1.0%
35 | COCCNC(=O)CCC1CCN(C/C=C/c2ccccc2OC)CC1 | -7.2 | -21.1 | -2.4 | -4.0 | 0.1 | 0.5%
36 | CCOc1cc(C2C(C(=O)OC(C)C)=C(C)NC3=C2C(=O)CCC3)cc([N+](=O)[O-])c1O (stereo not given) | -2.9 | 6.8 | 5.1 | -2.4 | -0.8 | 4.2%
37 | CC(C)CNC(=O)C(=O)NCCCN1CCOCC1 | 0.0 | -2.0 | 8.3 | -4.5 | -0.7 | -0.6%
38 | Cc1ccc(S(=O)(=O)N2CCCN(S(=O)(=O)c3ccc(C)cc3)CC2)cc1 | 2.7 | 8.0 | 4.3 | -2.9 | 3.6 | -2.0%
39 | Cc1ccc2nc(SCC(=O)NCc3ccc(S(N)(=O)=O)cc3)[nH]c2c1 | 5.5 | / | / | -3.4 | / | 1.5%
40 | NC(=O)C(CC(=O)O)NC(=O)[C@@H]1CCCNc2c(I)cc([N+](=O)[O-])cc2C(=O)N[C@@H](CO)C(=O)N[C@@H](Cc2ccc(O)cc2)C(=O)N1 (stereo not given in full) | 1.8 | -8.2 | 8.5 | -2.3 | 1.0 | 1.8%
41 | COc1ccc(-c2cc(C(C)=O)c(C)n2CCC(=O)NCc2ccccc2OC)cc1 | / | -11.3 | / | / | 2.0 | -0.8%
42 | O=C(NCc1cccnc1)c1ccc(S(=O)(=O)Nc2ccccc2)cc1 | 9.7 | -8.3 | -0.3 | -2.5 | 0.2 | -0.5%
43 | O=C(c1ccc(S(=O)(=O)c2ccc(F)cc2)c([N+](=O)[O-])c1)N1CCCCCC1 | -12.0 | 3.8 | 1.6 | 2.7 | 1.3 | -0.6%
44 | O=C1OC(Oc2ccc(Br)cc2)(c2ccccc2)c2ccccc21 (stereo not given) | 0.5 | 79.3 | 16.2 | 2.3 | 1.0 | 6.1%
45 | COc1cccc(C(=O)N2CCCC(Nc3ccc(C)c(C)c3)C2)c1 (stereo not given) | -4.8 | -1.0 | -10.9 | -1.8 | 0.4 | 0.2%
46 | COc1ccc(OCC(=O)Nc2cc(-c3nn(C)c(=O)c4ccccc34)ccc2OC)cc1 | -12.6 | 30.3 | -20.0 | 2.9 | 4.9 | 3.7%
47 | O=C(Nc1nc2ccc(S(=O)(=O)N3CCCC3)cc2s1)C1CCCO1 (stereo not given) | 0.9 | 19.7 | -13.1 | -1.1 | 1.1 | -1.1%
48 | COc1ccc(Cc2c(C(C)(C)C)nc3cc(C)c(Br)c(C)n23)c(C)c1 | 6.1 | / | 7.3 | / | 0.6 | ?

Some values from the results shown.
Under TRPML1 blocker, entry 41 reads -11.3
Under TRPML1 blocker, entry 43 reads 3.8

(list continues)
nr | structure | Six1-Eya2 inh | TRPML1 blocker | CtBP-E1A inh | D2 agonist | TRPML1 ag | PINK1 expr mod
49 | COc1ccc(CC2(CO)CCN(CC3=CC[C@H]4C[C@@H]3C4(C)C)CC2)cc1 | -1.2 | 18.5 | 2.1 | -5.9 | -0.5 | 0.8%
50 | N=C1C(c2nc3ccccc3s2)=C(O)CN1C1CCCCC1 | -2.0 | -9.6 | / | 2.1 | -0.8 | 13.7%
51 | CCCCCC(O)(CCCCC)C(=O)NNc1ccccc1 | 5.2 | 0.0 | 1.2 | -5.4 | 1.5 | 8.1%
52 | CCOC(=O)c1c(C)oc2ccc(N(C(=O)c3ccncc3)S(=O)(=O)c3ccc(CC)cc3)cc12 | / | 19.0 | / | / | 0.8 | 4.3%
53 | CC(C)(C)OC(=O)NNC(=S)NC1CCCCC1 | -0.1 | 8.7 | 23.0 | -1.7 | 2.2 | -1.1%
54 | COc1ccc(OC)c(NC(=O)c2ccc3c(c2)OCO3)c1 | -7.2 | 1.7 | 0.9 | -2.3 | 0.0 | 1.0%
55 | COc1ccccc1OCC(O)CN1CCN(C(=O)c2ccccc2)CC1 (stereo not given) | 0.1 | 7.3 | 3.2 | -2.5 | -0.1 | 0.0%
56 | Cc1cccc(Nc2ncnc3c2cnn3Cc2ccccc2)c1 | -1.8 | -10.9 | / | 1.7 | 1.2 | 3.4%

4 records picked at random from the list so far:
nr | structure | Six1-Eya2 inh | TRPML1 blocker | CtBP-E1A inh | D2 agonist | TRPML1 ag | PINK1 expr mod
56 | Cc1cccc(Nc2ncnc3c2cnn3Cc2ccccc2)c1 | -1.8 | -10.9 | / | 1.7 | 1.2 | 3.4%
50 | N=C1C(c2nc3ccccc3s2)=C(O)CN1C1CCCCC1 | -2.0 | -9.6 | / | 2.1 | -0.8 | 13.7%
49 | COc1ccc(CC2(CO)CCN(CC3=CC[C@H]4C[C@@H]3C4(C)C)CC2)cc1 | -1.2 | 18.5 | 2.1 | -5.9 | -0.5 | 0.8%
55 | COc1ccccc1OCC(O)CN1CCN(C(=O)c2ccccc2)CC1 (stereo not given) | 0.1 | 7.3 | 3.2 | -2.5 | -0.1 | 0.0%
